# High-throughput results deposited in PubChem by several laboratories.
# VCAM-1 rise – boosters of cytokine-driven VCAM-1 levels – cell-based, plate reader, pooled HUVEC, TNFa stimulus (AID 455); 10,000 tested, 0.2% active; augmentation, % at 5 µM; HUVEC TNFa-induced VCAM-1 immunofluorescence, plate reader; numbers were filed only for top-ranked candidate wells;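 active = a compound raising TNF-alpha-driven VCAM-1 surface staining, with its hit status upheld on visual or statistical review; inactive = the rest, including hits rejected on review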;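 also: 0% = TNFa with vehicle and 100% = strongest image-checked hit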
# Proteasome disasm – blocks ATP-dependent breakdown of the yeast 26S proteasome | 24,000 tested, 0.2% active | inhibition of disassembly, % (concentration not given with the values) | anti-FLAG beads, GFP-proteasome disassembly, flow cytometry;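 active = above 40%; inconclusive = likely self-fluorescent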;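 also: plate controls were ATP control with full disassembly for no effect and ATP-gamma-S intact proteasomes for full effect; higher percent means more bead fluorescence retained so stronger block of disassembly; stock transfer was 100 nL into about 10 µL; wells with too few beads may also be inconclusive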
# * marks the source's active call; other numbers are inactive results; i = inactive; ? = inconclusive; / = no result given. Some of the compounds tested, so the mix of outcomes need not match the whole.
SMILES,VCAM-1 rise,Proteasome disasm
COc1ccc(N(CC(=O)NCc2cccnc2)S(=O)(=O)c2c(C)nn(C)c2C)cc1,/,0.8
CCOC(=O)N1CCC(N2C(=O)c3ccccc3C2Nc2ccccc2C)CC1 (stereo not given),i,-0.7
Cc1nnc(NC(=O)NCN2C(=O)C3C4C=CC(C4)C3C2=O)s1 (stereo not given),/,-0.2
CCOC(=O)N1CCC(N2Cc3cccc(C(=O)NCc4ccccn4)c3C2=O)CC1,/,-0.7
CC(CCc1ccccc1)NC(=O)c1cc2sccc2n1C (stereo not given),/,-0.1
CCOc1ccccc1NC(=O)CN1C(=O)COc2ccc(Cl)cc21,/,-0.1
CS(=O)(=O)Nc1ccc(C(=O)NCCc2ccccc2)cc1,i,1.2
COc1ccc(S(=O)(=O)Nc2cccc(SC)c2)cc1OC,/,0.4
CCN(CC)C(=O)C1CC(=O)N(c2ccc(F)c(Cl)c2)C1 (stereo not given),/,1.0
CCOC(=O)C1CCN(C(=O)c2cn(C)c(=O)c3cc(OC)c(OC)cc23)CC1,/,0.5
COc1ccc(-c2nc(CN3CCC(C(=O)NC4CCCc5ccccc54)CC3)c(C)o2)cc1OC (stereo not given),/,5.1
Cc1nc2c(Br)c3nc(C(F)(F)F)[nH]c3c(Br)c2[nH]1,/,1.0
O=C(O)C1C2C=CC3(CN(C4CCCC4)C(=O)C13)O2 (stereo not given),i,-0.2
CCN=C1SC(CC(=O)Nc2ccccc2)C(=O)N1CC (stereo not given),i,-2.0
Cc1cc(NC(=O)CSc2cn(CCNC(=O)c3ccc(F)cc3)c3ccccc23)no1,/,-0.6

# Part of the list above, bar-delimited.
Molecule | VCAM-1 rise | Proteasome disasm
Cc1nnc(NC(=O)NCN2C(=O)C3C4C=CC(C4)C3C2=O)s1 (stereo not given) | / | -0.2
CCOC(=O)N1CCC(N2Cc3cccc(C(=O)NCc4ccccn4)c3C2=O)CC1 | / | -0.7
CC(CCc1ccccc1)NC(=O)c1cc2sccc2n1C (stereo not given) | / | -0.1
CCOc1ccccc1NC(=O)CN1C(=O)COc2ccc(Cl)cc21 | / | -0.1

# Next compounds follow:
SMILES,VCAM-1 rise,Proteasome disasm
OC(C#Cc1ccccn1)c1cccs1 (stereo not given),/,6.0
COc1ccc(NC(=O)C(CCS(C)(=O)=O)NC(C)=O)cc1 (stereo not given),/,-3.6
CC1CCCN(C(=O)c2cc3c(-c4ccc(Cl)cc4)nn(C)c3s2)C1 (stereo not given),i,0.4
CCC1Oc2ccccc2N(CC(=O)NCCCN2CCCCC2C)C1=O (stereo not given),/,3.3
O=C(CSc1nnc(NC(=O)C2CCC2)s1)NC1CC1,i,-1.2
COc1ccc(-c2nnc(Nc3nc4c(OC)cccc4s3)o2)c(OC)c1,/,-0.8
COC(=O)CNC(=O)C1CCCN1C(=O)CNC(=O)OC(C)(C)C (stereo not given),/,0.2
Cc1ccsc1-c1nc(CSCC(=O)NCCN2CCCC2)c(C)o1,/,-0.1
CC(C)NC(=O)C1CCCN(S(=O)(=O)c2cccs2)C1 (stereo not given),/,-1.1
CCn1cc(C(=O)O)c(=O)c2ccc(C)nc21,i,2.9
CC(=O)Oc1ccc(C(c2ccc(OC(C)=O)cc2)c2ccccn2)cc1,i,1.0
O=S(=O)(c1ccc(F)cc1)N1CCC(N2CCCC2)CC1,i,0.8
Cn1cccc1Cc1nnc(SCC(N)=O)n1-c1ccc(F)cc1,i,2.0
Cc1nc2c(c(C)nn2-c2ccccc2)c(C)c1Cl,/,1.2
Cc1c(C(=O)NCc2ccc3c(c2)OCO3)oc2ccc(S(=O)(=O)N3CCCC3)cc12,/,7.0

# Complete entries, looked up by structure. Order of screens: VCAM-1 rise | Proteasome disasm
# Cc1nc2c(c(C)nn2-c2ccccc2)c(C)c1Cl in the list: / | 1.2
# CCC1Oc2ccccc2N(CC(=O)NCCCN2CCCCC2C)C1=O (stereo not given) in the list: / | 3.3

# More structures follow:
SMILES,VCAM-1 rise,Proteasome disasm
Cc1cc(C)nc(N2CCC(C(=O)Nc3ccc(Oc4ccccc4)cc3)CC2)n1,i,1.3
CCOC(=O)N1CCN(C(=O)CCNS(=O)(=O)c2cc(Br)cnc2N)CC1,/,1.3
CCOC(=O)Cc1csc(NC(=O)CCNS(=O)(=O)c2ccc3c(c2)CCC(=O)N3)n1,/,1.0
CCCCOC(=O)c1[nH]c2c(c1C)C(=O)CC(c1cc(OC)c(OC)c(OC)c1)C2 (stereo not given),i,0.3
CCCCCc1c(C)nc(SCC(=O)O)[nH]c1=O,i,-2.5
COc1ccc2cc(CCNC(=O)CC(C)(C)C)c(=O)[nH]c2c1,/,0.6
Cc1nc2ccc(S(=O)(=O)NC(C(=O)NCc3ccco3)C(C)C)cc2s1 (stereo not given),/,0.7
COC(=O)c1sc(S(=O)(=O)N2CCN(c3ccccc3)CC2)c(C(=O)OC)c1C,i,-1.4
CC1CCN(CCNC(=O)CCS(=O)(=O)c2ccc(Br)cc2)CC1,/,0.8
O=C(O)C(c1ccccc1)N1CCCC1 (stereo not given),i,7.9
Cc1ccc(-c2nc(CSCC(=O)N3CCN(c4ccccn4)CC3)c(C)o2)cc1,/,13
CC1CCN(S(=O)(=O)c2ccc3ncn(CC(=O)N(C)Cc4ccccc4)c(=O)c3c2)CC1,/,0.8
COc1ccc(S(=O)(=O)NCC2CCC(C(=O)NCc3ccco3)CC2)cc1 (stereo not given),/,-0.2
CCOC(=O)c1c(CN(CC)CC)oc2cc(Br)c(O)cc12,/,0.9
CCOc1ccc(NC(=O)c2nnn(CC(=O)Nc3ccccc3OC)c2N)cc1,/,0.1

# 2 entries picked at random from the list so far:
SMILES,VCAM-1 rise,Proteasome disasm
CCOc1ccc(NC(=O)c2nnn(CC(=O)Nc3ccccc3OC)c2N)cc1,/,0.1
CC1CCN(CCNC(=O)CCS(=O)(=O)c2ccc(Br)cc2)CC1,/,0.8

# Next part:
SMILES,VCAM-1 rise,Proteasome disasm
CN(CCNC(=O)C1CCN(S(=O)(=O)c2cnc[nH]2)CC1)Cc1ccccc1,/,-2.0
Cc1cnc(C(=O)Nc2ccc(-n3cnnn3)cc2)cn1,i,2.5
O=C(CN1C(=O)CCS(=O)(=O)c2ccccc21)NCc1ccc(F)cc1,i,-0.1
CCC(=O)N/C(N)=N/c1nc(C)c2cc(OC)ccc2n1,i,1.3
O=C(CCCCCNS(=O)(=O)c1ccc(Br)cc1)NCCN1CCOCC1,/,-0.8
COc1ccc(CC(NC(C)=O)C(=O)NC2CCN(c3nc(C)cc(C)c3C#N)CC2)c(OC)c1 (stereo not given),i,-1.0
COc1ccccc1CNC(=O)C(CCSC)NS(=O)(=O)c1ccc2c(c1)oc(=O)n2C (stereo not given),/,6.4
CCCCCC(=O)Nc1cccc(-c2nc3ncccc3o2)c1,/,0.9
COc1cccc(C2CC(c3cccc(Br)c3)n3nc(N)nc3N2)c1 (stereo not given),/,-0.6
CN(C)Cc1c(O)ccc2oc(Cc3ccccc3)cc12,i,-0.9
CCCCCC(=O)OC(CN1CCCCC1)CN1CCCC1=O (stereo not given),/,-0.8
CCOc1ccc(-n2c(SCC(=O)Nc3ccc(OC)cc3OC)nc3c(c2=O)SCC3)cc1,/,1.1
Cn1c(CNc2nc(-c3ccccc3)cs2)nnc1SCC(=O)N1CCc2ccccc21,i,-2.1
CCCn1c(SCC(=O)Nc2ccccc2C(=O)OC)nc2c1c(=O)n(C)c(=O)n2C,i,-0.4
Cc1ccc(-c2nnn(CC(=O)N(Cc3ccco3)C(C(=O)NC(C)(C)C)c3cccs3)n2)o1 (stereo not given),i,1.6
Cc1noc(C)c1S(=O)(=O)N1CCC(C(=O)N2CCN(C(=O)c3ccco3)CC2)CC1,/,-0.6
COc1ccccc1CNC(=O)C1CCCN(S(C)(=O)=O)C1 (stereo not given),/,1.1
COc1cc(CNCCC2CCOC(C)(C)C2)ccc1O (stereo not given),/,0.2
CCOC(=O)c1c(NC(=O)c2cccs2)sc2c1CCN(C(=O)OCC)C2,i,-0.4
O=C(Nc1ccc(N2C(=O)C3C4C=CC(C4)C3C2=O)cc1)Nc1cccnc1 (stereo not given),i,2.2
Cc1ccc2cc3cc(C(=O)N(C)C4CCCCC4)oc3nc2c1,/,-0.3
CC(=O)NC(CCS(C)(=O)=O)C(=O)Nc1nc(C)cs1 (stereo not given),/,-1.3
CCOC(=O)C1CCN(c2c(NCCCN(CC)Cc3ccccc3)c(=O)c2=O)CC1,/,1.2
CC(NC(=O)c1ccccc1NC(=O)c1ccco1)C(=O)O (stereo not given),i,-0.2
CCOC(=O)CC(=O)CSc1[nH]c(=O)cc(C)c1C#N,i,-0.2
Cc1cc(C)cc(NC(=O)CCNS(=O)(=O)c2ccc3c(c2)oc(=O)n3C)c1,i,2.2
COC(=O)c1ccc(NS(=O)(=O)c2ccc3c(c2)oc(=O)n3C)cc1,/,-0.5
COc1ccc(-c2nc(CSCC(=O)NCc3ccc4c(c3)OCO4)c(C)o2)cc1OC,i,2.8
COc1ccc(-n2nc(C(=O)NCC(=O)NCC3CCCO3)c3ccccc3c2=O)cc1 (stereo not given),i,0.0
COc1cccc(CN2C(=O)CCC2(C)C(=O)NC2CCCCC2)c1 (stereo not given),/,-0.6
Cc1ccc(C)c(NC(=O)CS(=O)(=O)c2c[nH]c3ccccc23)c1,/,0.2
CCOc1ccccc1NC(=O)C1CCC(CNc2c(N3CCOCC3)c(=O)c2=O)CC1 (stereo not given),/,0.1
CCN(CCCNC(=O)COc1cc(=O)n(CC)c2ccccc12)Cc1ccccc1,/,?
O=C(CCN1C(=O)c2ccccc2C1=O)OCN1C(=O)c2ccccc2C1=O,i,-2.1
O=C(Nc1ccc(F)cc1F)N1CCN(c2ncccn2)CC1,/,-0.3
CCOc1ccc(N(CC(=O)Nc2nccs2)S(=O)(=O)c2c(C)noc2C)cc1,/,-0.7
Cc1ccc(-n2c(Cc3cccn3C)nnc2SCC(=O)N2CCc3ccccc32)cc1,/,-0.4
Cc1cc(Nc2ccc(N3CCC(C)CC3)cc2)n2ncnc2n1,i,?
Cc1ccc(-c2nnn(CC(=O)N(Cc3cccs3)C(C(=O)NC(C)(C)C)c3ccc(C)o3)n2)o1 (stereo not given),i,-0.2
Cc1csc(NC(=O)CCS(=O)(=O)c2ccc(Br)cc2)n1,i,-0.5
COC(=O)c1ccc(-c2nn(C)c(=O)c3ccccc23)cc1,i,-0.4
COc1cccc(NC(=O)COC(=O)c2ccco2)c1,i,-0.8
COc1ccccc1NC(=O)CSc1nnc(-c2ccccc2)o1,/,1.2
Cc1c(C(=O)NCCN2CCOCC2)oc2ccc(S(=O)(=O)N3CCCCCC3)cc12,/,0.1
Cc1cc(C)cc(N(C(=O)c2ccc3c(c2)OCO3)C2C=CS(=O)(=O)C2)c1 (stereo not given),/,-1.4
COc1cc2nc(N3CCN(C(=O)C4CCCO4)CC3)nc(N)c2cc1OC (stereo not given),i,0.0
CCNC(=O)N(C)c1nncnc1C(=O)NC,i,-1.8
CCCCn1c(N(CCOC(C)=O)C(C)=O)nc2ccccc21,/,-2.9
COC(=O)c1ccc(N2C(=O)CC(N3CCN(C(=O)c4ccco4)CC3)C2=O)cc1 (stereo not given),i,-2.2
CC1(C)OC(=O)C(=CNC(CCC(N)=O)C(=O)O)C(=O)O1 (stereo not given),i,1.6
Brc1ccc(Oc2nnnn2-c2ccccc2)cc1,/,1.1
COc1nc(NCC(C)C)nc(Oc2ccc(=O)n(-c3ccccc3)n2)n1,/,-0.9
CCOC(=O)N1CCC(N2C(=O)c3ccc(C(=O)NCc4ccc(F)cc4)cc3C2=O)CC1,/,-0.4
Cc1nc2ccc(S(=O)(=O)NCC(=O)N3CCCC(C)C3)cc2s1 (stereo not given),/,-1.1
Cn1c(Cn2c(=O)sc3ccccc32)nnc1SCc1cccnc1,/,0.9
Brc1cccc(-c2nnc(SCc3ccon3)n2-c2ccccc2)c1,/,-1.0
CCOc1ccc(NC(=O)Nc2ccc3c(c2)N(C)C(=O)CS3)cc1,/,3.0
OCC1N=C(c2ccccn2)OC1c1ccccc1 (stereo not given),/,-1.7
COc1ccc(OC)c(NC(=O)CCn2cccc2)c1,/,-1.6
NNC(=O)c1ccncc1,i,-0.2

# Other entries follow.
SMILES,VCAM-1 rise,Proteasome disasm
CC1CCCN(CCCNC(=O)C2CC(=O)N(c3ccc(F)c(Cl)c3)C2)C1 (stereo not given),/,0.6
Cc1cccc(CS(=O)(=O)Cc2ccc(C(=O)NCc3cccnc3)o2)c1,/,0.0
CCOC(=O)N1CCC(NC(=O)c2cc3c(-c4ccc(OC)c(OC)c4)nn(C)c3s2)CC1,/,-1.9
CC(=O)N1CCCc2cc(S(=O)(=O)Nc3ccc4c(c3)OCO4)ccc21,/,1.4
Cc1cc(NCc2ccc(F)cc2Cl)n2nnnc2n1,/,0.2
COc1ccc(OC)c(NC(=O)C2CCCN2C(=O)OCc2ccccc2)c1 (stereo not given),/,0.3
CCN(CC)C(=O)c1cncc(C(=O)N(CC)CC)c1-c1ccccc1,/,0.0
O=C(COC(=O)CCc1c[nH]c2ccccc12)NC1CCS(=O)(=O)C1 (stereo not given),i,1.2
Cc1ccc(Cl)cc1NC(=O)Cn1cccc1,/,1.6
CCOC(=O)N1CCC(NC(=O)CCC(=O)N2CC(C)Oc3ccc(C)cc32)CC1 (stereo not given),/,0.3
CCOC(=O)N1CCN(C(=O)C2CC(c3ccc(F)cc3)=NO2)CC1 (stereo not given),/,-0.6
O=C(O)COc1ccc(S(=O)(=O)NCCc2ccccc2)cc1,i,0.8
O=C1C=C(OCc2ccccc2)CN1,/,-1.1
CCC(c1nnnn1Cc1ccco1)N(CCc1ccccc1)Cc1cc2cccc(C)c2[nH]c1=O (stereo not given),i,3.4
Cc1ncn(C23CC4CC(CC(O)(C4)C2)C3)n1,/,-1.2
COc1ccc(OC)c(CNC(=O)CCNC(=O)Cn2ccc3ccccc3c2=O)c1,/,-0.7
